Cruzain Triton: cruzain (T. cruzi) inhibition with detergent. P25779. purified cruzain, Z-FR-AMC fluorescence, 0.01% Triton. Potency, µM, for inactives: max response, negative = inhibition, most hits filed as inhibitors. actives 0.43% (n = 200,000). AID 1478;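 also: plate controls were neutral wells for no effect and buffer without enzyme for full effect; nearly all actives have a fitted effect of over 40% in size; top concentration of the series not given in the record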
Target sequence (P25779 123-467 limits assumed): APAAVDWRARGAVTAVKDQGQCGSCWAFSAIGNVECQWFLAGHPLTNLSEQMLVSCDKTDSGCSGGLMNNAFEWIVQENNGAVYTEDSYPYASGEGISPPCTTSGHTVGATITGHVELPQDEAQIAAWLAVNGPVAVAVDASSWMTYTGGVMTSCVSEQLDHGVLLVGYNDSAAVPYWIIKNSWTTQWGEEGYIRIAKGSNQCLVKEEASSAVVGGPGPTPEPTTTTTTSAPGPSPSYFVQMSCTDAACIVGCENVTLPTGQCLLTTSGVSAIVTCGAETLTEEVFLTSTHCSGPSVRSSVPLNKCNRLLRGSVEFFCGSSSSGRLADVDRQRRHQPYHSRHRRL
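15 min RT preincubation of 1.5 nM cruzain with compound, then 2 uM Z-FR-AMC added; kinetic AMC fluorescence, 60 s delta. Triton X-100 0.01%, pH 5.5.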
Marburg entry inh: blocks Marburg virus binding to or entry into cells; Marburg virus pseudotyped entry inhibition, cell reporter; control for the full effect not named in the record; about a third of the inactives were read at about 46 µM; AID 540276; actives 1.8% (n = 300,000); Potency, µM (highest dose often 37.8 µM), inactives show at the highest dose activity change, negative = inhibition, hits mostly inhibitors; active = well fitted inhibition curve with a large enough effect; inconclusive = small, poorly fitted or top-dose-only effect, or effect the other way; inactive = flat fitted curve, though single readings scatter; tested in HEK293 cells; about a fifth of its hits are not listed in these tables; also: % is scaled to controls: 0 for no effect and ±100 for the full control effect; luciferase read-out
LASV entry inh: blocks Lassa virus binding to or entry into cells; Lassa virus pseudotype entry inhibition, cell reporter; control for the full effect not named in the record; Potency, µM (series often up to 37.9 µM), for inactives: at the top dose activity change, negative = inhibition, hits mostly inhibitors; actives 1.2% (n = 300,000); AID 540256; active means well fitted inhibition curve with a large enough effect; inconclusive means small, poorly fitted or top-dose-only effect, or effect the other way; inactive means flat fitted curve, though single readings scatter; tested in HEK293 cells; also: % is scaled to controls: 0 for no effect and ±100 for the full control effect; nearly all actives have a fitted effect of over 50% in size; luciferase read-out
Cruzain inh noDet: cruzain (T. cruzi) inhibition without detergent; P25779; purified cruzain, Z-FR-AMC fluorescence, no detergent; Potency, µM, without a hit: max response, negative = inhibition, most hits filed as inhibitors; actives 2.3% (n = 200,000); AID 1476;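 also: plate controls were enzyme without inhibitor for no effect and buffer without enzyme for full effect; nearly all actives have a fitted effect of over 40% in size; top concentration of the series not given in the record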
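Purified cruzain at 1.5 nM, pre-incubated 15 min with compound at room temperature in 100 mM sodium acetate pH 5.5, 5 mM DTT, 0.00005% Triton X-100. Reaction started with 2 uM Z-FR-AMC; AMC fluorescence increase over 60 s gives rate.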
StopGo reporter: lowers the luciferase signal of an FMDV 2A StopGo reporter | AID 1159524 | actives 1.2% (n = 410,000) | human cells with a luciferase reporter of 2A StopGo recoding; control for the full effect not named in the record | Potency, µM (series often up to 57.9 µM), inactives show top-dose signal change, negative = less light; active = well fitted falling curve with a large enough effect; inconclusive = small, poorly fitted or top-dose-only effect; inactive = no such curve, though single readings can be large or run the other way; tested in HEK293T cells; also: % is scaled to controls: 0 for no effect and ±100 for the full control effect; nearly all actives have a fitted effect of over 45% in size; luciferase light after 4 h
NS1 function inh: inhibitors of influenza NS1 protein function | S. cerevisiae slowed by influenza A NS1, growth recovery by OD600 | Potency, µM (top dose mostly 46.1 µM), without a hit: at the highest dose activity, positive = more growth | actives 0.4% (n = 270,000) | AID 2326; active means well fitted rising curve with a large enough effect; inconclusive means small, poorly fitted or top-dose-only effect; inactive means no such curve, though single readings can be large or run the other way; also: nearly all actives have a fitted effect of over 50% in size
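Compounds were scored for reversing the slow growth caused by influenza A NS1 in S. cerevisiae, measured by optical density at 600 nm. Assay medium contained 2% galactose at pH 6.0; NS1-free yeast of the same strain were the positive control.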
SARS PLpro yeast: SARS-CoV PLP inhibition in yeast. S. cerevisiae expressing SARS-CoV PLpro, growth rescue; control for the full effect not named in the record. Potency, µM (doses to about 32.9 µM), for the others: at the top dose activity, positive = growth rescue. AID 485353. actives 0.19% (n = 330,000); active means well fitted rising curve with a large enough effect; inconclusive means small, poorly fitted or top-dose-only effect; inactive means no such curve, though single readings can be large or run the other way; also: 0% is about no effect; nearly all actives have a fitted effect of over 55% in size; growth read by luminescence after 48 h
RE007 growth inh: less growth of the S. pombe RE007 Vpr strain; Potency, µM (doses to about 92.2 µM), for the others: top-dose activity change, negative = less growth; S. pombe RE007 Vpr strain, BacTiter-Glo ATP luminescence, 24 h; control for the full effect not named in the record; actives 0.21% (n = 360,000); active = well fitted falling curve with a large enough effect; inconclusive = small, poorly fitted or top-dose-only effect; inactive = no such curve, though single readings can be large or run the other way;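 also: % is scaled to controls: 0 for no effect and ±100 for the full control effect; nearly all actives have a fitted effect of over 50% in size; the assay follows cell death caused by Vpr and the record does not say whether a fall means rescue or toxicity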
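Fission yeast strain RE007, carrying one chromosomally integrated HIV-1 vpr copy, was seeded at OD 0.01 in PMG+AL medium with 23 nL pinned compound. After 24 h at 30 °C and 99% humidity, viability was read by BacTiter-Glo luminescence.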
Starred values were filed as active, the others as inactive; ? = inconclusive; . = not tested or not shown; [ ] = another dose, or the depositor's remark. Unless noted, calls follow the shape of the dose curve; as a rule, active = well fitted curve in the direction sought with a large enough effect; inconclusive = small, poorly fitted or top-dose-only effect, or another doubt; inactive = no such curve, though single readings can be large; an effect the other way counts as inactive or inconclusive. Potency is read from the fitted curve at half-maximal effect.

| compound | LASV entry inh | RE007 growth inh | Cruzain inh noDet | StopGo reporter | NS1 function inh | Marburg entry inh | Cruzain Triton | SARS PLpro yeast |
| --- | --- | --- | --- | --- | --- | --- | --- | --- |
| CCOC(=O)C1CCN(C(=O)c2ccccc2N(C)S(=O)(=O)c2ccccc2)CC1 | ? | -8% | 6% | -1% | 4% | 4% | -2.5% | -7% |
| CC(=O)Nc1ccc(CC(=O)NCCC(c2ccccc2)c2ccccc2)cc1 | 0.89µM* | 10% | . | 0% | 2% | ? | . | 2% |
| CC(C)(C)CC(C)(C)NC(=S)Nc1ccc2nc(-c3ccccn3)c(-c3ccccn3)nc2c1 | -15% | 8% | ? | -27% | ? | ? | -8.0% | -4% |
| O=C(CSc1ccc(-c2ccc(F)cc2)nn1)NC1CCCCC1 | . | -2% | . | -14% | 5% | 13%[46.1 µM] | . | -3% |
| CC(=O)Nc1cccc(NS(=O)(=O)c2cn(C)c(=O)n(C)c2=O)c1 | . | -3% | . | -24% | 5% | . | . | ? |
| COc1ccccc1-n1c(-c2ccc(C)cc2)cn2c3c(=O)n(C)c(=O)n(C)c3nc12 | ? | . | -10% | -20% | . | . | 0.5% | . |
| COc1ccc(NC(=S)Nc2cc(C)ccn2)c(OC)c1 | 16% | -17% | -10% | 53%[activator] | 7% | ? | -3.7% | 19% |
| COc1cccc(C(=O)NC2CC(C)(C)Cc3c2cnn3-c2cccc(F)c2)c1OC (stereo not given) | ? | 6% | . | 0% | -20% | ? | . | -1% |
| COc1ccc(N(C(=O)c2snc(C(N)=O)c2N)C(C(=O)NCC2CCCO2)c2ccc(C)o2)cc1OC (stereo not given) | 6% | -9% | . | -11% | 5% | 15%[46.1 µM] | . | -1% |
| C=CCn1c(SCc2ccc([N+](=O)[O-])cc2)nnc1C(C)NC(=O)c1ccccc1 (stereo not given) | 13% | -1% | -16% | -1% | 3% | 8% | -0.5% | 8% |
| COc1ccc(CNC(=O)Cc2ccc(NC(=O)N3CCSc4ncccc43)cc2)cc1OC | 3%[46.1 µM] | . | -3% | -15% | . | . | -7.0% | . |
| Cc1ccc(C(=O)Nc2cc(Cl)ccc2-n2cncn2)s1 | -2%[46.1 µM] | 7% | . | 66%[activator] | . | 6% | . | -20% |
| COc1cccc(OC)c1-c1nn2c(-c3cc(-c4ccccc4)n[nH]3)nnc2s1 | . | 7% | 20µM* | -23% | 6% | . | 1.8µM* | -6% |
| CC1CCN(c2nn3c(=O)c(C(=O)NCCc4ccccc4)cnc3s2)CC1 | ? | . | 11% | 0% | . | . | 2.4% | . |
| COc1cc(C2C(C(N)=O)=C(C)Nc3nc(CCCO)nn32)cc(OC)c1OC (stereo not given) | . | 12% | -1% | 2% | -2% | . | 1.1% | -2% |
| CCOc1ccc(C(C)NC(=O)C2CCC2)cc1 (stereo not given) | 16% | 24% | -6% | -4% | 12% | 18% | -1.8% | 8% |
| O=C(NNc1ccc([N+](=O)[O-])cc1[N+](=O)[O-])C1C2CCCCC21 (stereo not given) | 14% | 11% | -8% | -16% | -9% | . | -2.9% | -12% |
| Cc1ccc(Nc2nc(-c3ccc(C)cc3)c(CC(=O)O)s2)cc1 | . | -7% | . | 17% | 4% | . | . | -3% |
| CCCCCOc1ccc(NC(=O)Cc2csc(C)n2)cc1 | 0%[46.1 µM] | . | 1% | 10% | . | 10%[46.1 µM] | -2.7% | . |
| O=C(Nc1cccc(S(=O)(=O)N2CCCCC2)c1)c1ccc2ncsc2c1 | . | 7% | . | -14% | 4% | . | . | 1% |

Whole records as entered above. Values in the order: LASV entry inh	RE007 growth inh	Cruzain inh noDet	StopGo reporter	NS1 function inh	Marburg entry inh	Cruzain Triton	SARS PLpro yeast
COc1cccc(C(=O)NC2CC(C)(C)Cc3c2cnn3-c2cccc(F)c2)c1OC (stereo not given) across the screens: ?	6%	.	0%	-20%	?	.	-1%
COc1ccc(CNC(=O)Cc2ccc(NC(=O)N3CCSc4ncccc43)cc2)cc1OC across the screens: 3%[46.1 µM]	.	-3%	-15%	.	.	-7.0%	.
C=CCn1c(SCc2ccc([N+](=O)[O-])cc2)nnc1C(C)NC(=O)c1ccccc1 (stereo not given) across the screens: 13%	-1%	-16%	-1%	3%	8%	-0.5%	8%
O=C(CSc1ccc(-c2ccc(F)cc2)nn1)NC1CCCCC1 across the screens: .	-2%	.	-14%	5%	13%[46.1 µM]	.	-3%
CCCCCOc1ccc(NC(=O)Cc2csc(C)n2)cc1 across the screens: 0%[46.1 µM]	.	1%	10%	.	10%[46.1 µM]	-2.7%	.

Next section:
| compound | LASV entry inh | RE007 growth inh | Cruzain inh noDet | StopGo reporter | NS1 function inh | Marburg entry inh | Cruzain Triton | SARS PLpro yeast |
| --- | --- | --- | --- | --- | --- | --- | --- | --- |
| CC(=O)/C=C/c1ccccc1Oc1c(F)c(F)nc(F)c1F | . | -2% | . | 32µM* | 1% | . | . | -1% |
| CCOC(=O)c1c(NC(=O)c2cc(OC)c(OC)c(OC)c2)sc2c1CCCC2 | -14%[46.1 µM] | . | -6% | -4% | . | . | -0.1% | . |
| CC12CCC3c4ccc(OC(=O)N(CCCl)CCCl)cc4CCC3C1CCC2O (stereo not given) | 5.6µM* | -1% | . | -30% | . | ? | . | . |
| N#CCc1ccc(NC(=O)c2ccccc2C(=O)Nc2ccc(CC#N)cc2)cc1 | -1%[46.1 µM] | -6% | . | 22% | -1% | 0%[46.1 µM] | . | 1% |
| O=C(c1ccc(Cl)cc1)N1CCCOC1 | -2% | 3% | 2% | 0% | 4% | 8% | 1.7% | 6% |
| Clc1ccc(-c2cn3ncsc3n2)cc1 | ? | . | 8% | 30%[activator] | . | ? | -18% | . |
| Cn1c(C(=O)N/N=C/c2ccccc2)cc2ccccc21 | . | -8% | . | 9% | -15% | . | . | 12% |
| Cc1ccc2c(C)c(C(=O)N(C)CCC3CCCCO3)oc2c1C (stereo not given) | ? | -7% | . | 0% | -45% | ? | . | -2% |
| C=CCn1c(SC2CCOC2=O)nc2scc(C3CC3)c2c1=O (stereo not given) | -6% | -2% | -20% | 5% | 3% | 0%[46.1 µM] | -1.5% | 3% |
| CCOc1ccc(OCC)c(S(=O)(=O)n2cc(C)nc2CC)c1 | . | 10% | . | 61%[activator] | -6% | . | . | 0% |
| CCC(=O)NC(=S)Nc1ccc(S(=O)(=O)NC(C)=O)cc1 | 7% | -15% | -3% | -5% | 10% | -3% | -2.2% | 0% |
| CCOC(=O)c1cc2n(n1)C(C(F)(F)F)CC(C)N2 (stereo not given) | 11% | 1% | 0% | 14% | 9% | 14% | -1.9% | -5% |
| O=C1NCCCCC1NS(=O)(=O)c1ccc(F)c(F)c1 (stereo not given) | . | -4% | . | -22% | 2% | -2% | . | 0% |
| Cc1c(C(=O)NCc2ccccn2)oc2ccc(S(=O)(=O)N3CCC4(CC3)OCCO4)cc12 | -4% | 3% | . | -20% | . | -12%[46.1 µM] | . | -1% |
| CC(C)NC(=O)CSc1nc(Cc2ccccc2)nc2ccccc12 | 2% | -1% | . | ? | -6% | ? | . | -1% |
| O=C(COC(=O)c1n[nH]c2ccccc12)NCCc1ccccc1 | 2%[46.1 µM] | -1% | . | -1% | . | 15%[46.1 µM] | . | 3% |
| COc1ccccc1NC(=S)NNC(=O)c1ccc(Cl)cc1Cl | 10% | 2% | ? | 38%[activator] | -27% | 3%[46.1 µM] | 1.4% | 18% |
| COc1ccc(F)cc1CN1CCN(CC(=O)N2CCc3ccccc32)CC1 | . | -13% | . | 1% | -4% | -19%[46.1 µM] | . | -5% |
| CN(CC(=O)Nc1ccc(Cl)c(S(=O)(=O)N2CCOCC2)c1)C(=O)c1cccs1 | 10% | -10% | . | -21% | . | 14% | . | -1% |
| COc1ccc(S(=O)(=O)N2CCOCC2)cc1NS(=O)(=O)/C=C/c1ccccc1 | ? | -1% | . | 42%[activator] | . | 23%[46.1 µM] | . | -4% |

(list continues)
| compound | LASV entry inh | RE007 growth inh | Cruzain inh noDet | StopGo reporter | NS1 function inh | Marburg entry inh | Cruzain Triton | SARS PLpro yeast |
| --- | --- | --- | --- | --- | --- | --- | --- | --- |
| Cc1cccc(C(=O)NC(=S)NCc2ccccc2)c1 | 18µM* | -20% | . | 30% | . | 14% | . | . |
| COc1ccc(NC(=O)CNC(=O)Cn2cnc3sc(C)c(C)c3c2=O)cc1OC | 24%[46.1 µM] | -3% | . | 27% | -2% | 3%[46.1 µM] | . | -3% |
| COc1ccccc1NS(=O)(=O)c1cc(NC(=O)c2ccc(NC(C)=O)cc2)ccc1N1CCOCC1 | ? | -14% | . | 71%[activator] | . | -4% | . | . |
| CCCC(=O)NC(=S)Nc1ccc(Cl)cn1 | ? | -7% | 6% | 65%[activator] | -56% | ? | -3.4% | 19% |
| Cn1c(C(=O)OCC(=O)NCC2CCCO2)cc2sccc21 (stereo not given) | -22% | -2% | -3% | . | -7% | 14% | 0.1% | 15% |
| CCOc1ccc(NC(=O)CSc2nncc(=O)[nH]2)cc1 | 7%[46.1 µM] | -5% | . | 8% | 16% | ? | . | 3% |
| Cc1ccc(S(=O)(=O)NC(=S)c2ccccc2)cc1 | 10% | 1% | . | 43%[activator] | . | -25% | . | . |
| O=C(CSc1ccc2ccccc2c1)Nn1cnnc1 | -3% | 30% | 4% | -8% | 4% | 3% | -0.3% | -4% |
| COC(=O)c1cccc(NC(=O)CSc2nnc(C)o2)c1 | ? | 15% | . | -2% | 2% | -2%[46.1 µM] | . | -1% |
| c1ccc(-c2noc(CSc3nc4ccccc4o3)n2)cc1 | 15% | -5% | 7% | 23% | -12% | 13% | -5.4% | -7% |
| Cc1ccc(C)c(NC(=O)CN(C)C(=O)c2cccc(N3C(=O)CCC3=O)c2)c1 | 17% | 0% | . | -14% | . | 12%[46.1 µM] | . | -4% |

Some entries already given with just RE007 growth inh, NS1 function inh and Cruzain inh noDet.
SMILES,RE007 growth inh,NS1 function inh,Cruzain inh noDet
COC(=O)c1cccc(NC(=O)CSc2nnc(C)o2)c1,15%,2%,.
Cc1cccc(C(=O)NC(=S)NCc2ccccc2)c1,-20%,.,.

From PubChem
